CtBP-E1A blk – CtBP/E1A binding inhibition. AlphaScreen GST-E1A/His-CtBP binding, 1536-well; stronger effect = lower value; control for the full effect not named in the record. AID 651724. 340,000 tested, 0.49% active. activity change, % (test concentration not listed); in the data active means activity change below about -65%; inconclusive means about -30% to -65%; inactive means above about -30%; note: % is set by controls: 0 for no effect and ±100 for the full control effect; compound concentration not given in the record
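GST-E1A and His-tagged CtBP (125 nM each as 5X stock) were preincubated with pin-transferred compound for 2 h at 37 °C in the dark, then glutathione donor and nickel acceptor beads were added for 1 h before AlphaScreen reading.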
gsp antag – antagonists of gsp mutant (McCune-Albright syndrome). gsp-mutant cells, cAMP HTRF, 30 min; control for the full effect not named in the record. 340,000 tested, 0.4% active. Potency, µM (highest dose often 76.9 µM), inactives show at the highest dose activity change, negative = inhibition, usual class: inhibitors; active = falling curve of any shape with a large fitted effect; inconclusive = falling curve, mostly with a smaller effect; inactive = flat or rising curve; cell line not stated here;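 note: intracellular cAMP measured with PDE inhibitor Ro 20-1724 present during compound exposure; potency is the fitted concentration of half-maximal effect; % is set by controls: 0 for no effect and ±100 for the full control effect; nearly all actives have a fitted effect of over 65% in size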
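Cells, 2000/well, grown 16–24 h in DMEM 10% FBS with 0.5 mg/ml G418, then compounds plus […] (300 uM addition stock), 30 min at 37C. cAMP read by HTRF (cAMP-d2 and anti-cAMP antibody-K in lysis buffer) after 30 min RT.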
Sfp inh – inhibitors of Bacillus subtilis Sfp phosphopantetheinyl transferase | Potency, µM, for inactives: max response, negative = inhibition, hits mostly inhibitors | 310,000 tested, 3.5% active | Biochemical Sfp PPTase activity, qHTS | AID 1490; active = well fitted inhibition curve with a large enough effect; inconclusive = small, poorly fitted or top-dose-only effect, or another doubt; inactive = no such curve, though single readings can be large or run the other way;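 note: the enzyme is Sfp with the accession as filed and its product quenches rhodamine fluorescence; potency is the fitted concentration of half-maximal effect; 0% = enzyme reaction without inhibitor and -100% = no enzyme wells; top concentration of the series not given in the record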
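Step 1, compound plus 15 nM Sfp-PPTase, 15 min, room temperature. Step 2, add rhodamine-CoA (5 uM) and BHQ-2-YbbR (12.5 uM). Step 3, read 525/598 nm fluorescence at 0 and 30 min.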
TRPV1 potentiator – potentiators of human vanilloid receptor 1 (TRPV1). Q8NER1. TRPV1-expressing cells, Fluo-8 calcium influx, capsaicin EC20 potentiation; host cell line not named in the record; control for the full effect not named in the record. potentiation, % at 8.33 µM. 320,000 tested, 0.02% active; active means potentiation above 80%; inconclusive means 30% to 80%; inactive means below 30%; note: 0% is about no effect
Target sequence (Q8NER1 whole entry, looked up): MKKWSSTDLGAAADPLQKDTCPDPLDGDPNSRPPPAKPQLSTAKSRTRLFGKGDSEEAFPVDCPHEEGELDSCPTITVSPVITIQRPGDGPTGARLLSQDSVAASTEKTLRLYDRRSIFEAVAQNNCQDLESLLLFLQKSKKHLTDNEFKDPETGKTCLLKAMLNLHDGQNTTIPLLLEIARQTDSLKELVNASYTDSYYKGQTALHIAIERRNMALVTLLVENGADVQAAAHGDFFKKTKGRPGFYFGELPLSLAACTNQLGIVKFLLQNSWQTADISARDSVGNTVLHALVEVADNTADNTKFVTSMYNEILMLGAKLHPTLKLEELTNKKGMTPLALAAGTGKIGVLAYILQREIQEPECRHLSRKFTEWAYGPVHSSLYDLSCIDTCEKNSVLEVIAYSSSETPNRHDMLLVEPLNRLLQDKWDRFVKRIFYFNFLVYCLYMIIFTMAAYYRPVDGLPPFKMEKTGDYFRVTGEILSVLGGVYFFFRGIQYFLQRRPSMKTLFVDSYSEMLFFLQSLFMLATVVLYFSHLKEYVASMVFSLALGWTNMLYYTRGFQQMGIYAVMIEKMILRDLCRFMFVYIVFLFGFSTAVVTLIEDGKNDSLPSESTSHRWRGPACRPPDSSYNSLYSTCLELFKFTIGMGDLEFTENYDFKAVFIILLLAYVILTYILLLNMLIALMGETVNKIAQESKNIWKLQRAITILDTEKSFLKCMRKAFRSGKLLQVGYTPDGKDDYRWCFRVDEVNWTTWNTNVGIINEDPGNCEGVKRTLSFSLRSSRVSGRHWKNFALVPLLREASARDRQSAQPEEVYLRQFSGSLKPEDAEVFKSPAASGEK
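Cells expressing TRPV1 were dye-loaded with Fluo-8 and read kinetically: 10 s baseline, 3 min after compound (agonist portion), then 2 min after EC20 capsaicin (allosteric enhancer portion). Calcium-bound dye fluorescence at 480/520 nm.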
ClpP mod – qHTS Assay for Activators of ClpP. ATP-dependent Clp protease proteolytic subunit (Bacillus subtilis (strain 168)), P80244. purified B. subtilis ClpP, FRET peptide cleavage, 20 min. Potency, µM (top dose mostly 57.5 µM), for inactives: at the top dose activity change, negative = active. 340,000 tested, 1.9% active; active = well fitted falling curve with a large enough effect; inconclusive = small, poorly fitted or top-dose-only effect; inactive = no such curve, though single readings can be large or run the other way; note: potency is the fitted concentration of half-maximal effect; the source files actives as falling curves though it sought activators and does not explain the sign; nearly all actives have a fitted effect of over 65% in size; many hits overshoot -100%
Target sequence (P80244 whole entry, looked up): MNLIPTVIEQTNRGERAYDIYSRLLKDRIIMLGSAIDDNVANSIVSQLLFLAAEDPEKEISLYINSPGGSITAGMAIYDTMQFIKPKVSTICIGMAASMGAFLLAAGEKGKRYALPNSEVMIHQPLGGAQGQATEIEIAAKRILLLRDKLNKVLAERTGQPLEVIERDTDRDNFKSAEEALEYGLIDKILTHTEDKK
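Buffer: 100 mM Tris/HCl pH8, 100 mM KCl, 0.05% low protease BSA, 2.5% glycerol, 0.01% Tween-20. ClpP 10 microg/mL final; 20 min RT; delta FRET normalized to ADEP and DMSO controls.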
gsp agonist – gsp mutant agonism; gsp mutant cells, cAMP HTRF, 30 min; control for the full effect not named in the record; Potency, µM (series often up to 76.9 µM), for inactives: top-dose activation (cAMP increase), usual class: activators; 340,000 tested, 0.13% active; active = well fitted activation curve with a large enough effect; inconclusive = small, poorly fitted or top-dose-only effect, or another doubt; inactive = no such curve, though single readings can be large or run the other way; cell line not stated here;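 note: phosphodiesterase inhibitor Ro 20-1724 added with compounds to block cAMP breakdown; potency is the fitted concentration of half-maximal effect; nearly all actives have a fitted effect of over 60% in size; about a fifth of the inactives were tested at one dose only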
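Cells stably selected in G418 were plated at 2000/well, grown 16-24 hr, then given compounds in DMSO with the PDE inhibitor […] (300 uM solution added) for 30 min at 37C; cAMP was read by HTRF.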
Menin-MLL FL inh – inhibitors of human menin-MLL interaction, wild-type MLL peptide | 290,000 tested, under 10 active | Fluorescence polarization, fluorescein-MLL peptide displacement from menin | FP activity change, % at 61.4 µM; inconclusive = falling polarisation curve, or a change in total fluorescence; inactive = total fluorescence flat and polarisation flat or rising; no compound was filed as active; the % refers to the polarisation; negative = inhibition;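 note: % of control where 0% means no effect; inhibitors lower the polarisation; unlabelled MLL peptide was the positive control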
Active calls of the source: *; ? = inconclusive; . = no result given; & = joins results of further samples; [ ] = dose if it differs, or a comment.

SMILES | CtBP-E1A blk | gsp antag | Sfp inh | TRPV1 potentiator | ClpP mod | gsp agonist | Menin-MLL FL inh
COc1ccc(C(=O)NCCS(=O)(=O)N2CCN(Cc3ccccc3)CC2)cc1 | -14 | 14% | . | -8 | . | -34%[15.4 µM] | .
CC1(C)c2cc(O)ccc2OC1N1CCOCC1 (stereo not given) | -5 | 8% | 7% | 7 | -3.3% | 1% | 4.8
Cc1ccc(S(=O)(=O)N(C)C)cc1NC(=O)c1ccc(OC(F)(F)F)cc1 | -16 | 3% | 11% | -11 | -0.5% | -46%[15.4 µM] | -0.1
O=C(O)C1=C[C@@H](c2ccc(C(F)(F)F)cc2)C[C@@H](OCc2ccc(CO)cc2)O1 | 4 | 5% | 14% | 30 | 0.8% | 3% | -0.9
Cc1cccc(NC(=O)CSc2nnc(-c3ccco3)c(-c3ccco3)n2)c1C | 4 | 3% | 32µM* | 4 | 0.8% | -7%[15.4 µM] | 15
COc1cccc(-c2nc(Oc3cc(C)cc(C)c3)c3ccccc3n2)c1O | . | . | 12% | -3 | . | . | 6.7
O=C(CSc1nc2ccccc2[nH]1)c1ccc2c(c1)OCO2 | -3 | 0% | ? | -15 | -2.0% | -9% | 3.7
C[C@@H](C(=O)NCC1CC1)[C@@H]1C[C@@]1(C)[C@@H](NC(=O)OCc1ccccc1)c1ccccc1 | -4 | 0% | -17%&18% | -20 | -2.3% | . | -2.0&-0.2
CCOc1cccc(OCCOCCOc2ccccc2C(C)=O)c1 | 10 | 7% | 5% | 0 | -0.4% | 15% | 3.9
CC(C)(C)C(=O)N1CCC[C@H]1C(O)(c1ccccc1)c1ccccc1 | 0 | -5% | -6% | -5 | -3.6% | -28% | -1.8
Cc1ccc(NC(=O)CNC(=O)c2cccs2)c(O)c1 | 4 | 8% | . | 8 | . | -10%[15.4 µM] | .
CCCC(=O)NC(=S)Nc1ccc(N2CCOCC2)c(Cl)c1 | . | -3% | 6% | 0 | -1.6% | 18% | 0.8
CC1CC(C)CN(S(=O)(=O)c2ccc3c(c2)CCN3C(=O)C2CC2)C1 (stereo not given) | -2 | -21% | -12% | -3 | -0.5% | -7% | .
Cc1[nH]c2ccccc2c1/C=N/NC(=O)CNC(=O)c1cccs1 | 1 | -4% | 6% | . | . | -9% | 1.2
Cn1c(N)c(C(=O)CSc2nnc(C3CC3)n2-c2ccccc2)c(=O)n(C)c1=O | -4 | -8% | . | -5 | -1.6% | 22% | .
CCOc1ccccc1NC(=O)CN(Cc1ccccc1)S(C)(=O)=O | -4 | 13% | 22% | 4 | -1.9% | -30% | 2.7
O=C(/C=C/c1ccccc1)/C=C/c1ccccc1 | 7 | 20% | -27% | -7 | -1.8% | 0% | 2.8
CCCc1nnc(NC(=O)CCC(=O)N2CCN(CCOc3ccc(C)cc3)CC2)s1 | 5 | -11% | -8% | . | -0.5% | 0% | 1.4
C[C@@H]1CN([C@@H](C)CO)C(=O)CCCn2nncc2CO[C@H]1CN(C)C(=O)Nc1ccccc1C(F)(F)F | -10 | . | . | . | 0.1% | -20% | .
O=C(c1ccco1)N1CCN(C(=O)c2cn(-c3ccccc3)nc2-c2ccccc2)CC1 | -4 | -5% | . | -4 | -1.7% | ? | .
COc1cc(/C=C(\C#N)C(=O)NC(C)C)cc(Cl)c1O | 0 | -41% | -5% | -9 | . | 0%[15.4 µM] | ?
COc1cc2cc(C(c3nnnn3C(C)(C)C)N3CCc4ccccc43)c(=O)[nH]c2cc1OC (stereo not given) | -9 | -9% | -3% | -8 | 17% | -5% | -1.6
C=CCOC(=O)C1=C(C)NC(SCC(=O)OCC)=C(C#N)C1c1ccc(C)cc1 (stereo not given) | 13 | -14% | -18% | -14 | ? | 0% | 0.5
CC(C)(C)C1CCc2c(sc(NC(=O)CSc3nnc(-c4ccccc4)o3)c2C#N)C1 (stereo not given) | 25 | -26% | ? | 17 | 1.2% | ? | -0.1
C=C(C)c1cccc(C(C)(C)NC(=O)NCc2ccncc2)c1 | 11 | -4% | -17% | 0 | . | 7% | 7.0
CCCCOc1ccc(/C=N/NC(=O)c2nnn(-c3nonc3N)c2CN2CCCCCC2)cc1 | 0 | -22% | . | . | -9.5% | 13% | .
CC1(C)C(C=C(Cl)Cl)C1C(=O)N1CCN(c2ccccc2)CC1 (stereo not given) | 2 | -13% | 14% | -20 | 1.1% | -21% | 4.3
N#CC1=C(N)Oc2n[nH]c(-c3ccc(F)cc3)c2C1c1ccncc1 (stereo not given) | 15 | 20% | 0% | -7 | 0.4% | -6%[15.4 µM] | -1.6
CC(Sc1nc(NCc2ccccc2)nc(N2CCOCC2)n1)C(=O)Nc1ccccc1 (stereo not given) | -8 | -15% | 25% | -3 | 2.6% | 21% | 1.1
COc1ccc(C(C)(C)C)cc1NC(=O)COC(=O)c1nc2nccc(C)n2n1 | -10 | -14% | . | 2 | 1.2% | ? | .
CC(=O)c1ccc(S(=O)(=O)N2CCC(NC(=O)Nc3cccc(F)c3)CC2)cc1 | -5 | 14% | 5% | -2 | . | 13%[15.4 µM] | -6.5
CC(=O)N1CCC(C(=O)Nc2cc(C)cc(C)c2)CC1 | -2 | 7% | 5% | 1 | -0.4% | -11%[15.4 µM] | 0.2
O=C(Nc1ccccc1Cl)ON=C1c2ccccc2-c2ccccc21 | 0 | 9% | -5% | ? | -3.2% | -39%[inhibitor] | 3.2
COc1ccc2cc3cc(C(=O)NCc4ccc5c(c4)OCO5)oc3nc2c1 | -16 | 19% | ? | 9 | 14µM* | -2% | 3.2
O=C1NCCN1CCNS(=O)(=O)c1ccccc1[N+](=O)[O-] | 0 | -1% | 7% | 16 | . | 1%[15.4 µM] | -1.8
CNC(=O)c1cc2cccc(OC)c2oc1=O | -3 | 3% | 17% | -1 | -7.5% | 19% | 6.1
Cc1nc(Sc2ccccc2)c(C#N)c(C)c1[N+](=O)[O-] | 6 | -24% | -5% | -3 | . | 8%[15.4 µM] | 2.1
CNC(=O)c1cc2cc(OC)ccc2oc1=N | 2 | 30%[activator] | -20% | 16 | ? | ? | ?
COc1cccc(C2C(C(=O)c3cccs3)=C(O)C(=O)N2CCN2CCOCC2)c1OC (stereo not given) | 2 | 1% | -3% | 16 | . | ? | 7.2
CC1=Nc2ccc(Br)cc2C(c2ccccc2)N1CC(=O)O (stereo not given) | 3 | 9% | 11% | 3 | . | 1%[15.4 µM] | -1.3

Three of the entries above in order of their number in Sfp inh, lowest first:
SMILES,Sfp inh
CC1CC(C)CN(S(=O)(=O)c2ccc3c(c2)CCN3C(=O)C2CC2)C1 (stereo not given),-12%
CC(=O)N1CCC(C(=O)Nc2cc(C)cc(C)c2)CC1,5%
Cc1ccc(S(=O)(=O)N(C)C)cc1NC(=O)c1ccc(OC(F)(F)F)cc1,11%

Next section
SMILES | CtBP-E1A blk | gsp antag | Sfp inh | TRPV1 potentiator | ClpP mod | gsp agonist | Menin-MLL FL inh
COc1cccc(CNC(=O)c2ccc(CS(=O)Cc3ccccc3Cl)o2)c1 (stereo not given) | -3 | . | . | . | -1.8% | -28% | .
CCOc1ccc(N(CC(=O)Nc2cccc(OC)c2)S(C)(=O)=O)cc1 | 11 | 3% | 22% | -11 | 2.1% | 23% | -7.7
C/C(=N/NC(=O)CCC(=O)Nc1cccc(Cl)c1)c1ccc(C)cc1 | -1 | 6% | 3% | -3 | -6.4% | -22% | 0.1
Cc1oc(-c2ccc(Cl)cc2)nc1CS(=O)CC(=O)NCCCN1CCN(Cc2ccccc2)CC1 (stereo not given) | -3 | 4% | -3% | -8 | -14% | ? | .
Nc1ccc(Cc2ccccn2)cc1 | . | 4% | 4% | 4 | -0.9% | -64%[inhibitor] | 1.3
CCC(C)(C)NC(=O)C(c1cccc(OC)c1)N(C(=O)CNC(=O)c1cccs1)c1cccnc1 (stereo not given) | 1 | 2% | 14% | 5 | . | -38%[inhibitor] | -7.7
O=C1/C(=C/c2cccs2)CCC/C1=C\c1cccs1 | -4 | -9% | -8% | 17 | 0.6% | 9%[15.4 µM] | .
COc1cc(N)c(Cl)cc1C(=O)OC(C)C(=O)Nc1cccc(S(=O)(=O)N2CCOCC2)c1 (stereo not given) | -17 | -10% | . | 9 | -5.2% | 5% | .
COc1ccc2nc(NC(=O)CN3C(=O)NC4(CCCCC4)C3=O)sc2c1 | -5 | 3% | -6% | 26 | -2.2% | 6% | .
O=C(c1ccco1)N1CCC(c2nc(-c3ccc(F)cc3)no2)CC1 | 5 | -5% | -4% | -23 | 0.4% | 14% | 3.2
CCC(CO)NS(=O)(=O)c1cc(-c2nn(C)c(=O)c3ccccc23)ccc1C (stereo not given) | 0 | 6% | 10% | 4 | . | 0% | -0.5
CN(Cc1ccon1)Cc1cn(C)nc1-c1ccc(Oc2ccccc2)cc1 | -2 | -15% | 22% | 25 | . | 20%[15.4 µM] | 4.1
CCOC(=O)N1CCc2c(sc3c2c(=O)n(Cc2ccccc2)c(=O)n3CC(=O)NCCOC)C1 | 2 | -23% | 23% | 28 | -3.4% | -61%[inhibitor] | -1.4
COC(=O)c1cn(NC(=O)C2COc3ccccc3O2)c(=O)c2ccccc12 (stereo not given) | -21 | -11% | 1% | -7 | -8.9% | 20% | 0.6
COC(=O)[C@]1(C)N[C@H](CN(C)C(=O)NC(C)C)[C@@H]2C(=O)N(Cc3ccccc3)C(=O)[C@@H]21 | 12 | 8% | . | . | 0.1% | . | .
O=C(COc1ccc(Br)cc1)N1CCN(c2ccc([N+](=O)[O-])c(N3CCCCC3)c2)CC1 | -19 | -3% | 11% | -7 | -2.0% | 2%[15.4 µM] | -0.7
COc1cccc(OC)c1C(=O)Nc1c(C(=O)N2CCN(c3ccccn3)CC2)oc2ccccc12 | . | -14% | 12% | 17 | -0.4% | -21% | .
COC(=O)c1n[nH]n(-c2ccc(F)c(Cl)c2)c1=O | 10 | -7% | 6% | 9 | 0.1% | 12%[15.4 µM] | -0.4

Rows were taken by chance (roughly 5.3% active in at least one column).
